# Screens: PubChem BioAssay, several laboratories
# Arbovirus inh = blocks arbovirus infection; arbovirus infection cell-based antiviral screen; inhibition, % at 10 µM; hit rate 0.37% among 200,000;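 active means inhibition from about 30%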;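 further: bluetongue infection of BSR cells; cell survival read as ATP light after 72 h; 0% = infected wells without compound and 100% = uninfected wells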
# Mtb bLac sens = beta-lactam sensitization of Mtb H37Rv. hit rate 0.27% among 330,000. inhibition, % at 25 µM. M. tuberculosis H37Rv growth with meropenem, percent inhibition; hits of this screen are not shown here;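 active means about 74% or more and at least 40 points above the plate without the antibiotic, then above 30% in a dose series; inconclusive means first-round hits that could not be retested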;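 further: growth measured after seven days incubation then overnight dye step; 0% = bacteria only wells and 100% = bacteria with antibiotic; twin plates without the antibiotic show which effects depend on it; some results filed as inactive read as strong as hits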
# RecA intein inh = inhibitors of M. tuberculosis RecA intein splicing. cell-free RecA intein splicing, fluorescence. inhibition, %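 (about 9 µM by stock and volumes)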. hit rate 0.75% among 290,000; in the data active means inhibition above about 30%; inconclusive means no clear call, values can overlap the other calls;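 further: 0% = vehicle wells and 100% = reference inhibitor control wells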
# Target sequence (P9WHJ3 whole entry, looked up): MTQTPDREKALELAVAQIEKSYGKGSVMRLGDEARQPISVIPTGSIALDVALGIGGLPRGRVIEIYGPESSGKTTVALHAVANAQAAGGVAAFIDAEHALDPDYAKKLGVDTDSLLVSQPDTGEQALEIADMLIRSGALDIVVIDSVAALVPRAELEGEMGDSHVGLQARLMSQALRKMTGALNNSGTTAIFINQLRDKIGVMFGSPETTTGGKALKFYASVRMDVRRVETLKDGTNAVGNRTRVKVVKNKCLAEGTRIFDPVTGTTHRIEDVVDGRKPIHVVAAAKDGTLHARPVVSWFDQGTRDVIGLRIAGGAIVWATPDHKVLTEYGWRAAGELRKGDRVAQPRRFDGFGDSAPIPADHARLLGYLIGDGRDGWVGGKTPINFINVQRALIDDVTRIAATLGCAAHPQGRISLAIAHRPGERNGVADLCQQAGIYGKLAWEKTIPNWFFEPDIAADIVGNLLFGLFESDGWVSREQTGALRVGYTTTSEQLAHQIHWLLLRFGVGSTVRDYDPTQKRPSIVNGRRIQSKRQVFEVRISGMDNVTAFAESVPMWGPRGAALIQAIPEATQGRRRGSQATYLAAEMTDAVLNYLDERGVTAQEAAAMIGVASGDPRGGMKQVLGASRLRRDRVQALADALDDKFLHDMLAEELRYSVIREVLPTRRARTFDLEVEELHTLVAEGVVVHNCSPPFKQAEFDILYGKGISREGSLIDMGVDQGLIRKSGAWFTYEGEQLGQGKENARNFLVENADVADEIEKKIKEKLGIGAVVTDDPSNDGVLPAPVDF
# YopH inh = YopH (Yersinia) phosphatase inhibition. AID 898. hit rate 0.16% among 140,000. inhibition, %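 (about 10 µM by stock and volumes)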. fluorescence Ex485/Em525;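 active means inhibition of 50% or more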;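 further: controls were vehicle for no effect and minimum signal wells for full effect; inactives centre near -20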
# Mtb growth = M. tuberculosis H37Rv growth inhibitors, H37Rv strain (AID 1626). M. tuberculosis H37Rv growth inhibition; higher % means a stronger effect. inhibition, % at 10 µM, or IC50 in µM where a hit was titrated. hit rate 0.95% among 220,000;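 active means confirmed in a dose series; inconclusive means inhibition above 80% but not taken into the dose series; inactive means below 80% or under 30% at every dose of the series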;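 further: bacteria incubated seven days before Alamar blue readout; 0% = bacteria only wells and 100% = bacteria with antibiotic wells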
# Arbovirus inh repeat = second read-out of Arbovirus inh, no call of its own (marks repeat the call); inhibition, %; measured here: 10K subset replicate screen; many hits read low in the repeat;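 first of two repeat runs on a subset; 0% = infected and 100% = uninfected wells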
# Active calls of the source: *; ? = inconclusive; / = no result given. Not all compounds are listed. The share of hits here may be higher or lower than overall.
SMILES,Arbovirus inh,Mtb bLac sens,RecA intein inh,YopH inh,Mtb growth,others
CCOC(=O)C1=C(C)N(CCO)C(=O)NC1c1cccc(O)c1 (stereo unspecified),1,-2,-8.3,-55,-14%,
CCOC(=O)N1CCN(C(=O)C(CC)c2ccccc2)CC1 (stereo unspecified),-4,2,2.0,-22,-2%,
C=CCN1c2ccccc2[C@]23C[C@@H](C(=O)OC)N(C(=O)c4ccco4)C2=NC(C(=O)OC)=C(C(=O)OC)[C@H]13,/,2,0.3,/,-18%,
O=C(Cn1nc2sc3ccccc3n2c(=O)c1=O)c1cccs1,/,2,-0.2,/,-2%,
COc1ccc(OC)c(NC(=O)CN2CCc3ccccc3C2)c1,/,1,5.2,/,/,
Brc1ccc(OCc2nnnn2-c2ccccc2)cc1,-1,7,7.1,/,6%,
Cc1ccc(NC(=O)c2ccc(OCc3c(C)noc3C)cc2)cc1,/,0,-2.5,/,-4%,
O=C1NC(=O)/C(=C\c2ccc(Oc3cnccn3)cc2)S1,6,-7,4.3,/,6%,
O=C(Nc1ncc(Cl)cn1)c1cccs1,1,7,-1.7,4,-2%,
COc1cc(OC)c2c(OC)cccc2n1,-6,2,-6.3,-17,78%,
CCCN1C(=O)CC(c2ccco2)Sc2ccccc21 (stereo unspecified),-6,9,2.5,-27,-9%,
COc1ccc2c(c1)c(CC(=O)OC(C)C(=O)N(C)C)c(C)n2C(=O)c1ccc(Cl)cc1 (stereo unspecified),/,-4,2.2,/,/,
O=C(O)C1CC=CCC1C(=O)NCCc1csc(-c2ccccc2)n1 (stereo unspecified),5,8,0.5,-46,2%,
Cc1ccccc1C(=O)N[C@H](C(=O)OCC(=O)c1ccc[nH]1)C(C)C,-2,5,-0.1,8,-1%,
Cc1cc([N+](=O)[O-])nn1Cc1c(F)c(F)c(F)c(F)c1F,-1,-3,4.5,-25,3%,
Nn1c(SCC(=O)Nc2ccccc2F)nc2ccccc2c1=O,1,9,0.4,-19,-3%,
CC(=O)NC(CCS(C)(=O)=O)C(=O)Nc1ccccc1Cl (stereo unspecified),7,5,-2.9,-53,-2%,
CCOc1cccc(-c2c(C(=O)N/N=C/c3ccc(C)s3)nnn2-c2nonc2N)c1,/,11,2.9,/,/,
COCCNC(=O)CSc1ccc(-c2nc3ccccc3[nH]2)cn1,/,5,0.0,/,/,
CCCCN(C)C(=O)Cn1ncc2c3ccccc3n(CCC)c2c1=O,/,0,-2.5,/,/,
CCOc1ccc(NC(=O)N(C2CCCCC2)C(C)c2cccnc2)cc1 (stereo unspecified),-10,-4,0.3,-28,?,
CC1CCC(C(C)C)C(OCC(O)CN2CCCC(C)C2)C1 (stereo unspecified),7,-3,-1.1,/,1%,
O=[N+]([O-])c1cccc(-c2nc3ccc([N+](=O)[O-])cc3[nH]2)c1,5,10,-3.2,/,17%,
COc1cccc(OCCCOc2ccc([N+](=O)[O-])cc2Cl)c1,16,-5,7.0,-16,/,
CC(C)NC[C@@H](O)c1ccc(O)c(O)c1,-7,-3,-6.5,0,6%,
Cc1cc(-c2ccc(S(=O)(=O)N(C)c3ccc(C)c(C)c3)s2)on1,/,-8,0.4,/,/,
Cc1cc(NC(=O)CCc2ccc(S(=O)(=O)N3CCOCC3)cc2)n(-c2ccccc2)n1,4,-5,1.2,-26,-10%,
CC(=O)N1c2ccc(S(=O)(=O)NCCC(=O)NC3CCCCCC3)cc2CC1C (stereo unspecified),/,-3,-1.8,/,/,
COC(=O)c1cc(NC(=O)c2cccc(F)c2)cc(C(=O)OC)c1,-3,20,-0.3,/,0%,
Cc1c(CCC(=O)O)c(=O)oc2cc3occ(C(C)(C)C)c3cc12,/,58,-1.5,/,2%,
O=C(CN1CCN(Cc2ccccc2Cl)C1=O)NCC1CCCO1 (stereo unspecified),9,1,-1.1,-34,6%,Arbovirus inh repeat=-1
CCS(=O)(=O)c1ccc(O)c(NC(=O)CC2(CC(=O)O)CCCC2)c1,/,3,-2.6,/,5%,
CC1=NN(c2ccccc2)C(=O)/C1=C\c1ccc(Br)s1,0,6,14,11,5%,
CCOc1ccc(NC(=O)CSc2nc(=O)n(CCN3CCOCC3)c3c2CCCC3)cc1,/,-6,-2.1,/,/,
Cc1ccc(S(=O)(=O)CCC(=O)OCn2nnc3ccccc3c2=O)cc1,-6,-6,-2.2,/,0%,
Cc1cc(-c2ccccc2)nc2[n+]1CCN2C,8,2,0.2,-10,-6%,
COCCn1c(SCC(=O)Nc2ccc(F)cc2)nc2c(oc3ccccc32)c1=O,-22,1,0.9,/,3%,
CCN(CC)C(=O)CSc1nc2ccccc2c(=O)n1OC,0,-6,-2.0,-37,2%,
COc1ccc(-c2nnc(NC(=O)CS(=O)(=O)c3ccc(Cl)cc3)o2)c(OC)c1,/,-9,0.5,/,/,
COc1ccc2nc(SCC(=O)N3CC(=O)Nc4ccccc43)c(C#N)cc2c1,-22,-2,-0.3,0,23%,
Cc1cccnc1N1C(=O)c2ccc(C(=O)O)cc2C1=O,/,2,-1.3,/,/,
CN1CCN(C(=S)SCc2nc(N)nc(Nc3ccc(F)cc3)n2)CC1,4,1,1.4,/,9%,
O=C1NC(=O)/C(=C/c2ccccn2)S1,/,-5,1.2,/,-11%,
O=C(CSc1nc2ccccc2o1)Nc1ccc(N2CCOCC2)cc1,-12,/,-0.9,-6,-3%,
COCc1ccc(CN2CCCC(CO)(Cc3ccccc3C)C2)o1 (stereo unspecified),-2,-5,0.7,/,0%,
COc1ccccc1C1CCN(Cc2cccc([N+](=O)[O-])c2)CC1,/,4,-1.2,/,11%,
Cc1nc2ccccc2n1CCc1ccccc1,-13,2,-1.1,/,-7%,
O=C1[C@@H]2Cc3c([nH]c4ccccc34)C(c3cccc([N+](=O)[O-])c3)N2C(=O)CN1C1CCN(Cc2ccccc2)CC1 (stereo partly specified),/,57,10,/,/,
CC(=O)c1ccc(NC(=O)C2CCCN(c3ncnc4c3nc3n4CCCCC3)C2)cc1 (stereo unspecified),/,1,1.3,/,/,
Clc1ccc2[nH]c3c(N4CCC5(CC4)OCCO5)ncnc3c2c1,-15,54,0.1,-34,11%,
COc1ccc(NC(=O)COC(=O)c2ccc(Cl)c(S(N)(=O)=O)c2)c([N+](=O)[O-])c1,/,1,0.0,/,1%,
CCCn1nc(C(=O)NCc2ccccn2)c2ccccc2c1=O,1,-3,-4.2,-43,7%,
C[n+]1cnc(-c2ccccc2)cc1-c1ccccc1,-4,-1,-1.3,-10,2%,
O=C(NCCc1cccs1)c1cccs1,-1,0,1.5,/,7%,
O=C(Nc1cccc(C(F)(F)F)c1)c1cc(-c2ccco2)on1,/,-8,3.4,/,/,
O=C(c1ccc(-c2ccccc2)cc1)N1CCN(c2nc3ccccc3o2)CC1,-1,/,/,/,-3%,
COc1ccc(OC)c(C2C(C#N)=C(N)Oc3cc(C)n(Cc4ccccn4)c(=O)c32)c1 (stereo unspecified),0,17,-2.3,-39,2%,
COC(=O)c1ccccc1OCCCOc1ccc(C=O)cc1OC,7,1,1.7,-31,4%,
Cc1cc(C)c(C)c(S(=O)(=O)N2CCC(C(=O)NCC(c3ccccc3)N(C)C)CC2)c1C (stereo unspecified),/,-5,-1.2,/,/,
O=C(NCc1ccco1)c1ccc(S(=O)(=O)N2CCCCC2)cc1,13,1,-2.5,/,11%,

# An excerpt from above in order of molecular weight, smallest number first:
SMILES,Arbovirus inh,Mtb bLac sens,RecA intein inh,YopH inh,Mtb growth,others
O=C1NC(=O)/C(=C/c2ccccn2)S1,/,-5,1.2,/,-11%,
Cc1nc2ccccc2n1CCc1ccccc1,-13,2,-1.1,/,-7%,
O=C(NCCc1cccs1)c1cccs1,-1,0,1.5,/,7%,
C[n+]1cnc(-c2ccccc2)cc1-c1ccccc1,-4,-1,-1.3,-10,2%,
Cc1cccnc1N1C(=O)c2ccc(C(=O)O)cc2C1=O,/,2,-1.3,/,/,
O=C(Nc1cccc(C(F)(F)F)c1)c1cc(-c2ccco2)on1,/,-8,3.4,/,/,
COCc1ccc(CN2CCCC(CO)(Cc3ccccc3C)C2)o1 (stereo unspecified),-2,-5,0.7,/,0%,
COC(=O)c1ccccc1OCCCOc1ccc(C=O)cc1OC,7,1,1.7,-31,4%,
Clc1ccc2[nH]c3c(N4CCC5(CC4)OCCO5)ncnc3c2c1,-15,54,0.1,-34,11%,
O=C(CSc1nc2ccccc2o1)Nc1ccc(N2CCOCC2)cc1,-12,/,-0.9,-6,-3%,
O=C(c1ccc(-c2ccccc2)cc1)N1CCN(c2nc3ccccc3o2)CC1,-1,/,/,/,-3%,
CN1CCN(C(=S)SCc2nc(N)nc(Nc3ccc(F)cc3)n2)CC1,4,1,1.4,/,9%,
COc1ccc2nc(SCC(=O)N3CC(=O)Nc4ccccc43)c(C#N)cc2c1,-22,-2,-0.3,0,23%,
COc1ccc(OC)c(C2C(C#N)=C(N)Oc3cc(C)n(Cc4ccccn4)c(=O)c32)c1 (stereo unspecified),0,17,-2.3,-39,2%,
CC(=O)c1ccc(NC(=O)C2CCCN(c3ncnc4c3nc3n4CCCCC3)C2)cc1 (stereo unspecified),/,1,1.3,/,/,
COc1ccc(-c2nnc(NC(=O)CS(=O)(=O)c3ccc(Cl)cc3)o2)c(OC)c1,/,-9,0.5,/,/,
COc1ccc(NC(=O)COC(=O)c2ccc(Cl)c(S(N)(=O)=O)c2)c([N+](=O)[O-])c1,/,1,0.0,/,1%,
Cc1cc(C)c(C)c(S(=O)(=O)N2CCC(C(=O)NCC(c3ccccc3)N(C)C)CC2)c1C (stereo unspecified),/,-5,-1.2,/,/,
O=C1[C@@H]2Cc3c([nH]c4ccccc34)C(c3cccc([N+](=O)[O-])c3)N2C(=O)CN1C1CCN(Cc2ccccc2)CC1 (stereo partly specified),/,57,10,/,/,

# Next part.
SMILES,Arbovirus inh,Mtb bLac sens,RecA intein inh,YopH inh,Mtb growth,others
CC1(C(=O)NC2CCCCC2)CCC(=O)N1Cc1cccs1 (stereo unspecified),-2,-9,-0.9,-17,0%,Arbovirus inh repeat=3
CC1(C)Oc2ccc(C(=O)N3CCOCC3)cc2N(CC(=O)N2CCOCC2)C1=O,3,-5,-0.8,-48,3%,
O=C(c1ccc(Cl)cc1)c1c[nH]c(C(=O)NNc2ccccc2)c1,-27,1,-1.6,/,?,
Cc1cc(CNC(=O)Cn2cc([N+](=O)[O-])cn2)c2ccccc2n1,12,3,-0.5,/,-9%,
COCCN1CCN(C(=O)C2CCC(=O)N(CCc3ccc(Cl)cc3)C2)CC1 (stereo unspecified),/,?,1.5,/,/,
CC(Sc1nnc2c(n1)[nH]c1ccccc12)C(=O)N(C)C1CCCCC1 (stereo unspecified),/,0,3.9,/,/,
CC(CNC(=O)CCCn1ncn2c(cc3occc32)c1=O)c1ccccc1 (stereo unspecified),/,4,-0.2,/,/,
CCNC(=S)NNC(=O)c1ccoc1C,5,?,-4.2,-13,-1%,
O=C(NCCO)c1cccc(S(=O)(=O)N2CCCCC2)c1,-2,5,5.7,1,-12%,
CC(C)(C)c1nc2ccccc2c(=O)n1N1C(=O)c2ccccc2C1=O,-7,-3,/,-3,9%,
Cc1c(Br)c([N+](=O)[O-])nn1CC(=O)NCc1cccnc1,8,2,-2.4,5,-10%,
O=C(Cc1cccs1)Nc1cccc(-c2nc3cc4ccccc4cc3[nH]2)c1,-42,71,2.8,-9,15µM*,
Cc1ccc(C(=O)N/C(=C/c2ccc(-c3cccc([N+](=O)[O-])c3)o2)C(=O)NC(C)C)cc1,-6,65,-1.0,-7,/,
Cc1cccc(Nc2ncnc3nc[nH]c23)c1C,-1,6,-2.7,7,11%,Arbovirus inh repeat=-1
CCCN1C(=O)/C(=C/c2c(NCCCOCC)nc3c(C)cccn3c2=O)SC1=S,-9,/,/,-21,-5%,
O=C(N1CCOCC1)N(CCN1CCOCC1)Cc1cccc(Cl)c1,14,12,-0.6,-11,2%,
